Mtb growth: M. tuberculosis H37Rv growth inhibitors, H37Rv strain (AID 1626). M. tuberculosis H37Rv growth inhibition; higher % means a stronger effect. one-dose inhibition, % at 10 µM; IC50 in µM for titrated hits. 0.95% of 220,000 active;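 active = confirmed in a dose series; inconclusive = inhibition above 80% but not taken into the dose series; inactive = below 80% or under 30% at every dose of the series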;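 note: bacteria incubated seven days before Alamar blue readout; 0% = bacteria only wells and 100% = bacteria with antibiotic wells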
RecA intein inh: inhibitors of M. tuberculosis RecA intein splicing | cell-free RecA intein splicing, fluorescence | inhibition, %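 (about 9 µM by stock and volumes)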 | 0.75% of 290,000 active | AID 2221; in the data active = inhibition above about 30%; inconclusive = no clear call, values can overlap the other calls;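 note: 0% = vehicle wells and 100% = reference inhibitor control wells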
Target sequence (P9WHJ3 whole entry, looked up): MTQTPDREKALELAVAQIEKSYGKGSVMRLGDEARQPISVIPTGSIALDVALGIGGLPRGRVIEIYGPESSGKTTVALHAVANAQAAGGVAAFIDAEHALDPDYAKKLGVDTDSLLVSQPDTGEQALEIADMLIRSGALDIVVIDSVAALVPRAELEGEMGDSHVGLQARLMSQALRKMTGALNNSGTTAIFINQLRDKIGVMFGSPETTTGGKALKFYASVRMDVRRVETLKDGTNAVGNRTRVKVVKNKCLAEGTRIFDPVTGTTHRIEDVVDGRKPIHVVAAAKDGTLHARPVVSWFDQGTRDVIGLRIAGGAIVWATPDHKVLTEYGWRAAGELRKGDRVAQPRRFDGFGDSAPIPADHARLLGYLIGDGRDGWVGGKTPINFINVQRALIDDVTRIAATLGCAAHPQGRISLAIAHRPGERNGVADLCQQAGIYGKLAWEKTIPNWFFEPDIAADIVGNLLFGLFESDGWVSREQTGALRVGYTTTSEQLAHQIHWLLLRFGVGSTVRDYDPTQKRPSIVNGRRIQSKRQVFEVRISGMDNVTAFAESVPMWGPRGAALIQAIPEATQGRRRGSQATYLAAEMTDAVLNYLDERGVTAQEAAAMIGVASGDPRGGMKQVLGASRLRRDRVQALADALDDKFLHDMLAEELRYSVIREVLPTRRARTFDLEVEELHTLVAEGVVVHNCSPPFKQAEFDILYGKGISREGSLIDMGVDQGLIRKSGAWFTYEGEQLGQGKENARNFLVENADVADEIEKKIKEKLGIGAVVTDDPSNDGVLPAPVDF
Mtb bLac sens: beta-lactam sensitization of Mtb H37Rv | AID 434955 | 0.27% of 330,000 active | M. tuberculosis H37Rv growth with meropenem, percent inhibition; hits of this screen are not shown here | inhibition, % at 25 µM;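 active = about 74% or more and at least 40 points above the plate without the antibiotic, then above 30% in a dose series; inconclusive = first-round hits that could not be retested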;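 note: growth measured after seven days incubation then overnight dye step; 0% = bacteria only wells and 100% = bacteria with antibiotic; twin plates without the antibiotic show which effects depend on it; some results filed as inactive read as strong as hits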
Arbovirus anti: antivirals against arbovirus infection; arbovirus infection cell-based antiviral screen; inhibition, % at 10 µM; 0.37% of 200,000 active;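 active = inhibition from about 30%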;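 note: bluetongue infection of BSR cells; cell survival read as ATP light after 72 h; 0% = infected wells without compound and 100% = uninfected wells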
YopH PTP inh: blocks Yersinia enterocolitica YopH tyrosine phosphatase. fluorescence Ex485/Em525. inhibition, %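 (about 10 µM by stock and volumes)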. 0.16% of 140,000 active. AID 898;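 active = inhibition of 50% or more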;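 note: controls were vehicle for no effect and minimum signal wells for full effect; inactives centre near -20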
Arbovirus anti repeat: recorded beside Arbovirus anti, whose call it bears; inhibition, %; measured here: 10K subset replicate screen; many hits read low in the repeat;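 first of two repeat runs on a subset; 0% = infected and 100% = uninfected wells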
* marks the source's active call; other numbers are inactive results; ? = inconclusive; / = not tested or not shown. This is a subset; the hit share may differ from the screen's.

SMILES	Mtb growth	RecA intein inh	Mtb bLac sens	Arbovirus anti	YopH PTP inh	others
COc1ccc2c(c1)c(C(=O)CN1CCC3(CC1)OCCO3)c(C)n2C	-7%	-4.1	-11	-7	-29
O=C(COc1ccc2c(c1)CCC2)NCc1cccc(Cl)c1	14%	1.8	5	12	-26
COc1ccc(CNC(=O)c2c(N)n(CCCN3CCOCC3)c3nc4ccccc4nc23)cc1	17%	-149	100	-37	-6
CCCCn1c(N)c(N(CC(C)C)C(=O)c2cc(-c3ccc(F)cc3)nc3ccccc23)c(=O)[nH]c1=O	/	0.0	-5	/	/
COC(=O)CCS(=O)(=O)c1cc(Cl)ccc1Cl	-5%	/	-7	6	-6	Arbovirus anti repeat=3
CCNc1nc(NCC)nc(OCC(=O)O)n1	8%	-2.0	-4	/	/
CNC(=O)c1csc(Cc2c(Cl)sc3ccc(Cl)cc23)n1	4%	2.2	0	/	/
Cc1c(NC(=O)C2CCCN2S(=O)(=O)c2cccc3nsnc23)cccc1C(=O)O (centres undefined)	2%	-5.9	-2	6	-5
CCCCC(=O)Nc1ccc(C(=O)N2CCN(C)CC2)cc1	-8%	-0.8	-9	4	-2
CC(=O)Oc1cccc(NC(=O)c2cccc(C(=O)Nc3cccc(OC(C)=O)c3)c2)c1	/	11	5	/	/
COc1ccc(C(=O)N2CCN(C(=O)c3ccc(-c4ccccc4)cc3)CC2)cc1OC	-3%	1.3	-1	-1	/
CCOC(=O)C1=C(c2ccccc2)NC(=S)NC1c1cc([N+](=O)[O-])ccc1OC (centres undefined)	-8%	4.7	-16	2	-30
COC(=O)c1ccccc1NC(=O)CSCC(=O)Nc1ccc(F)cc1	-5%	0.2	/	13	-26
COc1cc(/C=C2\CCC(C3CCCC3)C2=O)ccc1OC(C)C (centres undefined)	/	0.4	5	/	/
CCN1CCN(C(=O)/C=C/c2ccc(OC)cc2)CC1	/	-2.6	-5	/	/

The final 5 records of the part before open the next one:
SMILES	Mtb growth	RecA intein inh	Mtb bLac sens	Arbovirus anti	YopH PTP inh	others
COc1ccc(C(=O)N2CCN(C(=O)c3ccc(-c4ccccc4)cc3)CC2)cc1OC	-3%	1.3	-1	-1	/
CCOC(=O)C1=C(c2ccccc2)NC(=S)NC1c1cc([N+](=O)[O-])ccc1OC (centres undefined)	-8%	4.7	-16	2	-30
COC(=O)c1ccccc1NC(=O)CSCC(=O)Nc1ccc(F)cc1	-5%	0.2	/	13	-26
COc1cc(/C=C2\CCC(C3CCCC3)C2=O)ccc1OC(C)C (centres undefined)	/	0.4	5	/	/
CCN1CCN(C(=O)/C=C/c2ccc(OC)cc2)CC1	/	-2.6	-5	/	/
COc1ccc(CN(C)C(=O)c2ccc(Oc3ccccc3)cc2)cc1F	/	12	7	/	/
CCOC(=O)COc1ccc2c(C)cc(=O)oc2c1C(=O)c1ccccc1	0%	-5.9	5	6	/
O=C(Cn1nnc2ccccc2c1=O)N[C@@H](Cc1c[nH]c2ccccc12)C(=O)O	0%	1.0	-9	-2	-28
Cc1ccc(-n2c(C)n[nH]c2=S)cc1	4%	-0.1	4	-4	-38
O=C1C(=O)N(CCO)C(c2cccc(F)c2)/C1=C(\O)c1ccc(Cl)cc1 (centres undefined)	/	3.4	10	3	-37
COc1cccc(CNC(=O)CN2C(=O)CSc3ccc(S(=O)(=O)N4CCOCC4)cc32)c1	/	-1.7	-2	/	/
Cc1ccc(NC(=O)COC(=O)c2ccc([N+](=O)[O-])o2)cc1S(=O)(=O)N1CCCCC1	8%	5.5	35	-2	/
CCc1nc2scc(-c3ccccc3)c2c(=O)n1N	2%	-0.1	-3	3	-20
CC1=C(C(=O)Nc2ccccc2C(=O)NC2CCCCC2C)SCCO1 (centres undefined)	/	1.2	1	/	/
O=C(O)CC1SC(=O)N(Cc2ccccc2)C1=O (centres undefined)	-5%	0.3	2	5	-23
O=C(c1cc2cc(F)ccc2[nH]1)N1CCCC(Nc2ccc(F)cc2)C1 (centres undefined)	/	-2.0	6	/	/
O=C(CSc1nc2ccccc2c(=O)n1Cc1ccco1)c1ccccc1	2%	0.0	6	-10	-19
Cn1c(SCC(=O)N2CCCc3ccccc32)nnc1-c1cccs1	12%	-4.7	2	7	-27
CC(C)CN1C(=O)N(c2ccc(Cl)cc2)C(C)(O)CC1(C)C (centres undefined)	/	-0.3	3	/	/
COc1ccccc1CC(=O)NC(=O)c1ccccc1O	/	-2.8	-8	/	/
CCN(Cc1ccccc1)S(=O)(=O)c1ccc(S(=O)(=O)N(Cc2cccc(OC)c2)CC2CCCO2)cc1 (centres undefined)	3%	/	-8	-4	-12
Cc1ccc2c(CC(=O)N3CCc4ccccc43)coc2c1	-3%	1.3	-5	4	-41
O=C(Nc1ccc(-c2nnc3n2CCCCC3)cc1)c1cc2ccccc2o1	54%	2.5	90	-2	-34
COc1ccc([N+](=O)[O-])cc1NC(=O)Cc1ccc(Cl)cc1	15%	-1.3	1	4	-46
CC1CC(C(F)F)n2nc(C(=O)O)cc2N1 (centres undefined)	-1%	3.1	-10	0	-47
CCn1cc([N+](=O)[O-])nc1C	-7%	1.1	2	11	-19
COC(=O)C1=C(C)N=C2SCCC(=O)N2C1c1cccs1 (centres undefined)	-1%	2.2	-9	5	19
O=C(CN1CCCCC1)n1c2ccccc2c2ccccc21	6%	-5.3	3	/	/
CCOc1ccc(S(=O)(=O)N2CCCCC2)cc1NC(=O)CSCc1c(C)noc1C	/	0.6	-9	/	/
CCN1CCc2c(sc(NC(=S)NC(=O)c3ccco3)c2C(N)=O)C1	-12%	-33	-5	/	/
COc1cc(C(=O)NCC(=O)OCC(=O)c2cccc3ccccc23)cc(OC)c1OC	/	5.7	-19	/	/
O=C(c1noc2c1CCCC2)N1CCCCC1	-9%	-0.4	-7	1	-8
Cc1cccc(N2CCN(C(=O)c3ccncc3)CC2C)c1 (centres undefined)	-7%	3.3	4	-7	-36
Cc1onc(-c2ccccc2Cl)c1C(=O)Nc1ccccc1	-5%	-0.9	-3	0	1
Cc1cc(NC(=O)CSc2nc3cc4c(cc3c(=O)n2CCc2ccccc2)OCO4)no1	-2%	-3.3	-1	-14	-21

Brought forward from above: 3 compounds, followed by the next part.
SMILES	Mtb growth	RecA intein inh	Mtb bLac sens	Arbovirus anti	YopH PTP inh	others
Cc1cccc(N2CCN(C(=O)c3ccncc3)CC2C)c1 (centres undefined)	-7%	3.3	4	-7	-36
Cc1onc(-c2ccccc2Cl)c1C(=O)Nc1ccccc1	-5%	-0.9	-3	0	1
Cc1cc(NC(=O)CSc2nc3cc4c(cc3c(=O)n2CCc2ccccc2)OCO4)no1	-2%	-3.3	-1	-14	-21
N#CCC(=O)N/N=C/c1ccc(N2N=C(c3ccccc3)CC2c2ccccc2)cc1 (centres undefined)	/	-52	2	/	/
C=CCNC(=O)c1onc(CSc2cccc(C)c2)c1C(=O)O	0%	-3.8	8	20	-6
O=[N+]([O-])c1ccccc1/C=C/CN1CCC(O)CC1	/	-1.7	-3	/	/
CN(Cc1ccc2nonc2c1)Cc1nc(CC2CC2)no1	-5%	-3.8	-2	2	/
CNC(=O)c1cc2c(ccc3ccccc32)o1	2%	-3.2	0	6	/
CC(C)(c1ccccc1)c1ccc(OCCN2CCCC2)cc1	/	-0.1	-2	/	/
CCC(=O)c1ccc(OCC(=O)N(Cc2nnc(-c3ccccc3Cl)o2)C2CC2)cc1	/	-0.7	-2	/	/
Cc1cccc(C(=O)O/N=C(\N)c2ccccn2)c1	/	-1.4	1	/	/
CC1CCCN(c2ccc(C(=O)OCn3nnc4ccccc4c3=O)cc2[N+](=O)[O-])C1 (centres undefined)	?	0.6	99	10	28
CC(C)Nc1ccc(-n2nc3ccccc3[n+]2[O-])cc1	/	-3.8	9	/	/
CCCc1nn(C)c(C(=O)Nc2ccc(C)c(C)c2)c1Cl	5%	3.1	75	10	-15
Cc1ccc(Cn2cccc(NC(=O)NCc3ccccc3)c2=O)cc1	-2%	-2.7	9	-1	-19
Cc1cccc(C)c1OC(=O)Cc1ccccc1[N+](=O)[O-]	/	2.3	6	/	/
CC1C(=O)Nc2ccc(S(=O)(=O)N3CCN(c4cccc(C(F)(F)F)c4)CC3)cc2NC1=O (centres undefined)	/	0.4	17	/	/
COc1ccc(N(CC(=O)NCc2ccccc2)C(=O)Cn2nnc(-c3ccccc3F)n2)cc1OC	-2%	-1.9	5	2	/

Looked up by structure from above:
SMILES	Mtb growth	RecA intein inh	Mtb bLac sens	Arbovirus anti	YopH PTP inh	others
CCC(=O)c1ccc(OCC(=O)N(Cc2nnc(-c3ccccc3Cl)o2)C2CC2)cc1	/	-0.7	-2	/	/
CCCc1nn(C)c(C(=O)Nc2ccc(C)c(C)c2)c1Cl	5%	3.1	75	10	-15
CC(C)(c1ccccc1)c1ccc(OCCN2CCCC2)cc1	/	-0.1	-2	/	/
O=[N+]([O-])c1ccccc1/C=C/CN1CCC(O)CC1	/	-1.7	-3	/	/

Next structures
SMILES	Mtb growth	RecA intein inh	Mtb bLac sens	Arbovirus anti	YopH PTP inh	others
O=C(NCCc1ccccc1)C1CCN(C(=O)N2CCOc3ccccc32)CC1	/	1.9	-3	/	/
Cc1ccc(NC(=O)COC(=O)c2ccnn2C)cc1	0%	-1.3	-7	6	-13
O=C(O)c1ccc(N/N=C/c2cc3ccccc3nc2Cl)cc1	8%	-24	5	/	/
Cc1nnc(NC(=O)C2CCCCC2)s1	-5%	-0.8	-6	1	-27
C#CCN(CC=C)C(=O)c1ccc(OC2CCN(S(=O)(=O)N(C)C)CC2)cc1	/	0.2	-3	/	/
NC12CC3CC(C1)CC(CO)(C3)O2	-2%	-4.6	7	1	-36
Cc1ccc(-c2nn(-c3ccccc3)cc2C=C2C(=O)CC(C)(C)CC2=O)cc1	21%	-1.0	17	-18	-27
CCCNS(=O)(=O)c1ccc(CCC(=O)Nc2ccc3c(c2)OCO3)cc1	-4%	2.3	-13	-9	-4
O=C(CNS(=O)(=O)c1ccccc1F)Nc1ccc(N2CCOCC2)cc1	4%	-3.3	-4	-1	-21
CC1(C)Cn2c(nnc2-c2ccccc2)S1	-8%	-3.2	1	4	-14
CN1CCN(C(=S)C(=O)NCc2ccccc2)CC1	-2%	-0.7	-1	-2	/
COc1ccccc1N(CC(=O)NCc1ccco1)C(=O)CCC(=O)Nc1ccccn1	/	-2.2	5	/	/
COc1cc(NC(=O)Cn2nc(Cc3cccnc3)c3ccccc3c2=O)cc(OC)c1OC	0%	1.2	5	-10	-54
O=C(NC(NC(=S)Nc1ccccc1C(=O)O)C(Cl)(Cl)Cl)c1ccccc1 (centres undefined)	1%	-0.7	3	22	/
CCCCNC(=O)NNc1nc(Cl)cc(C)c1C#N	-1%	/	-5	9	/

An excerpt from above in order of formula weight, largest number first.
SMILES	Mtb growth	RecA intein inh	Mtb bLac sens	Arbovirus anti	YopH PTP inh	others
O=C(NC(NC(=S)Nc1ccccc1C(=O)O)C(Cl)(Cl)Cl)c1ccccc1 (centres undefined)	1%	-0.7	3	22	/
CN1CCN(C(=S)C(=O)NCc2ccccc2)CC1	-2%	-0.7	-1	-2	/
Cc1nnc(NC(=O)C2CCCCC2)s1	-5%	-0.8	-6	1	-27

Further entries
SMILES	Mtb growth	RecA intein inh	Mtb bLac sens	Arbovirus anti	YopH PTP inh	others
Oc1c(Cl)cc(Cl)c2c1NCCC2	/	-4.7	/	-18	-103
Cc1ccccc1C(=O)NCC(=O)OC1CCCCC1=O (centres undefined)	/	0.3	1	/	/
O=C(NCCc1ccc(Cl)cc1)C1CCCN1C(=O)Nc1ccccc1 (centres undefined)	/	-0.3	-1	/	/
COc1ccc(NC(=S)c2ccccc2)cc1	3%	0.8	5	-5	-8

Assay outcomes as filed in PubChem.
